# Vaccinia mCherry: qHTS for Stage-Specific Inhibitors of Vaccinia Orthopoxvirus: mCherry Reporter Primary qHTS; Vaccinia virus mCherry reporter infection, fluorescence; about a quarter of the inactives have no number; Potency, µM (highest dose often 36.5 µM), for the others: at the highest dose activity change, negative = inhibition, most hits filed as inhibitors; actives 0.63% (n = 310,000); AID 720579, 2013; active = well fitted inhibition curve with a large enough effect; inconclusive = small, poorly fitted or top-dose-only effect; inactive = no such curve, though single readings can be large or run the other way; tested in A549 cells; also: nearly all actives have a fitted effect of over 35% in size; inactives centre near -10
# VACV Venus inh: qHTS for Stage-Specific Inhibitors of Vaccinia Orthopoxvirus: Venus Reporter Primary qHTS; Vaccinia virus Venus reporter expression, fluorescence; Potency, µM (highest dose often 36.5 µM), for the others: top-dose activity change, negative = inhibition, actives largely listed as inhibitors; actives 0.46% (n = 330,000); AID 720580, 2013; active means well fitted inhibition curve with a large enough effect; inconclusive means small, poorly fitted or top-dose-only effect; inactive means no such curve, though single readings can be large or run the other way; tested in A549 cells; also: nearly all actives have a fitted effect of over 30% in size; inactives centre near -10
# An asterisk follows results filed as active; i = inactive; ? = inconclusive; nt = not tested or not shown; & = joins results of further samples; [ ] = dose if it differs, or a comment. % is scaled to controls: 0 for no effect and ±100 for the full control effect; potency is read from the fitted curve at half-maximal effect.
mol	Vaccinia mCherry	VACV Venus inh
CC(Oc1ccc2ccc(=O)oc2c1)C(=O)NC(Cc1c[nH]c2ccc(O)cc12)C(=O)O (stereo not drawn)	1%	1%
Cc1ccc(OCC(=O)Nc2cccc(-c3nc4ccccc4o3)c2C)cc1C	-19%	-10%
COc1cc(C(=O)NC(C)CCc2ccccc2)cc(OC)c1OC (stereo not drawn)	i	-5%
COc1ccccc1N(CC(=O)N1CCC(C)CC1)S(=O)(=O)c1ccc(C)cc1	-14%	-11%
CCN(C(=O)COc1ccc(C)nc1[N+](=O)[O-])C1CCS(=O)(=O)C1 (stereo not drawn)	-17%	-7%
Cc1cc(Cl)nc(Cl)c1C(=O)N1CCOCC1	-12%	-3%
O=C(CSc1ncn[nH]1)Nc1ccc(Cl)c(Cl)c1	-27%	-18%
NS(=O)(=O)c1ccc(NCc2ccccc2OCc2ccccc2F)cc1	-27%	-16%
COc1cccc(N2C(=O)N(CC(=O)NCc3cccc(OC)c3OC)c3ccccc3S2(=O)=O)c1	-3%	-10%
Cc1cc(C(F)(F)F)nc(SCC(=O)Nc2cc(C)on2)n1	-5%	-10%
COc1ccccc1CN1C(=O)C(=O)c2cccc(C)c21	-14%	-7%
CC1CCN(C(C(=O)NC2CCCCC2)c2cc3c(cc2[N+](=O)[O-])OCO3)CC1 (stereo not drawn)	i	3%
O=C(c1ccc2c3c(cccc13)CC2)C1CCCN(C(=O)c2ccc(=O)[nH]c2)C1 (stereo not drawn)	i	-8%
COc1ccc2oc(C(=O)NN3C(C)CCCC3C)c(C)c2c1 (stereo not drawn)	-4%	4%
S=c1[nH]nc(COc2ccccc2)n1-c1ccccc1	-13%	10%

# Further compounds
mol	Vaccinia mCherry	VACV Venus inh
Cc1noc(C)c1-c1ccc(C(=O)NCCN2CCOCC2)c2occc12	0%	-9%
COC(=O)c1c(NC(C)=O)sc(Cc2ccccc2)c1C	2%	9%
CN1C(=O)SC(Nc2ccccc2C(=O)O)C1=O (stereo not drawn)	-15%	-12%
CCn1nnc(NC(=O)Cc2ccc(Cl)cc2)n1	0%	-5%
CC1CCCN(C(=O)CNC(=O)c2sc3ccccc3c2Cl)C1 (stereo not drawn)	-2%	-20%
O=C(Nc1ccc(Br)cc1)c1ccc(N2C(=O)C3CC=CCC3C2=O)cc1 (stereo not drawn)	-11%	-11%
COc1ccc(S(=O)(=O)N2CCCCC2)cc1NC(=O)c1ccco1	-4%	-3%
O=C(Nc1nc2ccc([N+](=O)[O-])cc2s1)c1ccc(S(=O)(=O)N2CCCc3ccccc32)cc1	?	?
COc1ccc(C(=O)OCC(=O)Nc2sccc2C(N)=O)cc1OC	-14%	-6%
Cc1cc(-n2c(C)cc(C(=O)CSc3nnc4sc5ccccc5n34)c2C)no1	i	-11%
COc1ccc(Cn2c(=O)c3oc4ccccc4c3n(CC(=O)Nc3cc(C)cc(C)c3)c2=O)cc1	-22%	-13%
CCCCCOC(=O)C1=C(C)N(C)C(=O)NC1c1cc(Br)c(O)c(OC)c1 (stereo not drawn)	i	-15%
CN1CCN(C(=O)CCCN2C(=O)/C(=C/c3cccc(Br)c3)SC2=S)CC1	-25%	47%[activator]
CC(=O)NC1(c2cccc(F)c2)CCN(C(=O)Nc2ccc(C#N)cc2)CC1	-13%	-10%
Cc1cc(C(=O)Nc2cc(C(F)(F)F)ccc2N2CCOCC2)no1	i	-18%

# Among those listed so far, these contain a Cl atom.
mol	Vaccinia mCherry	VACV Venus inh
Cc1cc(Cl)nc(Cl)c1C(=O)N1CCOCC1	-12%	-3%
O=C(CSc1ncn[nH]1)Nc1ccc(Cl)c(Cl)c1	-27%	-18%
CCn1nnc(NC(=O)Cc2ccc(Cl)cc2)n1	0%	-5%
CC1CCCN(C(=O)CNC(=O)c2sc3ccccc3c2Cl)C1 (stereo not drawn)	-2%	-20%

# Other results.
mol	Vaccinia mCherry	VACV Venus inh
CC1(C)CC(=O)C=C(c2ccc(F)cc2OCc2ccccc2)C1	0%	-19%
COc1ccc(Cl)cc1NC(=O)C(C)Sc1nncn1C (stereo not drawn)	nt	?
O=C(COc1ccc(F)cc1)Nc1cc(Cl)ccc1-n1cncn1	-7%	-11%
COc1ccc(C(=O)N(C(C)C)C(C)C)c(OC)c1	-12%	3%
CC(C)C(=O)NC(NC(=O)C(C)C)c1ccc([N+](=O)[O-])cc1	i	-13%
O=C(CNCCCO)Nc1cc(C(F)(F)F)cc(NC(=O)CNCCCO)c1Cl	i	10%
Cc1ccccc1CNC(=O)Cc1ccc(NC(=O)N2CCCCc3ccccc32)cc1	-11%	-4%
CC/C(=N/Nc1cccc(Cl)c1)c1cnnc(SC)n1	7%	-5%
O=C(O)C(Cc1ccccc1)N1CCS(=O)(=O)CC1 (stereo not drawn)	0%	3%
CCN(CC(=O)Nc1c(F)cccc1F)C(=O)CCCSc1nc2ccccc2[nH]1	i	-16%
Cc1cc2nn(-c3ccc(F)cc3)nc2cc1NC(=O)c1cc(Cl)ccc1Cl	-14%	-4%
CS(=O)(=O)N1CCc2cc(-c3csc(NCC4CCCO4)n3)ccc21 (stereo not drawn)	i	1%
COc1ccc(Cl)cc1NC(=O)CSc1nc2sccc2c(=O)[nH]1	-10%	4%
CC1=CC(=O)C=CC1=Nc1ccc(N(C)C)cc1	?	?
COc1ccc2nc(N(Cc3cccnc3)C(C)=O)sc2c1	-10%	-6%

# Exported with values under each structure: part of the list above
# Screens in order: Vaccinia mCherry | VACV Venus inh
CC1(C)CC(=O)C=C(c2ccc(F)cc2OCc2ccccc2)C1
 : 0% | -19%
COc1ccc(Cl)cc1NC(=O)C(C)Sc1nncn1C (stereo not drawn)
 : nt | ?
O=C(COc1ccc(F)cc1)Nc1cc(Cl)ccc1-n1cncn1
 : -7% | -11%

# (continued)
mol	Vaccinia mCherry	VACV Venus inh
Cc1sc2nc(CSCC(=O)NC3CCCCC3)[nH]c(=O)c2c1C	-16%	-8%
CC(=O)NC(c1ccccc1)c1nc(-c2cncnc2)cs1 (stereo not drawn)	9%	-2%
COC(=O)c1ccc(NCC(=O)c2ccccc2)cc1	nt	-27%
CCCCn1c(N)c(N(CCOC)C(=O)c2cccc(S(=O)(=O)N(CC)c3ccccc3)c2)c(=O)[nH]c1=O	-13%	-11%
N#Cc1ccccc1Sc1ccccc1C(=O)Nc1ccc(Br)cc1	-23%	-15%
Cc1ccccc1CSc1ncc(C#N)c(N)n1	-5%	-8%
O=[N+]([O-])c1ccc(OCCO)c(P(=O)(c2ccccc2)c2ccccc2)c1	-19%[7.34 µM]	-2%[7.34 µM]
COC(=O)CSc1nc(N)c(C#N)c(-c2ccco2)c1C#N	nt	-4%
COc1ccc(N2C(=O)CC(N(Cc3ccco3)C(=O)CCC(=O)O)C2=O)cc1 (stereo not drawn)	i	-2%
COc1cccc(OC)c1C(=O)Nc1ccc([N+](=O)[O-])cn1	-10%	-10%
C=C(C)c1nc(Oc2ccccc2)nc(Oc2ccccc2)n1	-18%	-27%
CCOc1cnc(-c2ccc(Cl)cc2)o1	nt	-9%
CCCSCCCNC(=O)CN1C(=O)CCn2nc(-c3cn(C)c4ccccc34)cc21	-2%	-4%
O=C(CCNS(=O)(=O)c1cccc2nsnc12)NCc1ccccc1	-1%&5%	-7%&14%
O=C(c1ccco1)N1CCN(Cc2cc(=O)c(OCc3ccc([N+](=O)[O-])cc3)co2)CC1	?	?

# Next part:
compound | Vaccinia mCherry | VACV Venus inh
COc1ccc(OC)c(NC(=O)C2CCN(S(=O)(=O)c3ccc4c(c3)OCCO4)CC2)c1 | -1% | -16%
CCCCCn1c(CNC(=O)c2ccccc2)nc2ccccc21 | -1% | 9%
Cc1cc(C)n(CC(=O)Nc2ccc([N+](=O)[O-])cc2)n1 | -10% | -8%
COC(=O)c1ccc2c(c1)sc(=NC(=O)CCS(=O)(=O)c1ccccc1)n2C | -17% | -24%
CCN(CC)CCn1c(=N)n(CC(O)COc2cccc(C)c2)c2ccccc21 (stereo not drawn) | ? | -23%
CC1CN(C(=O)CS(=O)(=O)Cc2ccccc2)CC(C)O1 (stereo not drawn) | -16% | -8%
c1ccc(Cc2nnc3n2CCN(Cc2cnc(-c4ccccc4)s2)CC3)cc1 | -13% | -12%
Cc1cc(NC(=O)CSc2nnc(C3CC3)n2N)no1 | -14% | -1%
COc1ccccc1/C=N/Nc1nc(C)cc(C)n1 | -9%[7.34 µM] | 1%[7.34 µM]
Cc1ccc([N+](=O)[O-])cc1NC(=S)NC(=O)c1cccnc1 | -7% | -14%
COc1cc(NS(=O)(=O)c2cc3c(cc2C)NC(=O)CO3)cc(OC)c1 | -4% | -16%
CCN1C(=O)C(=C/C=C/c2ccco2)C(=O)N(CC)C1=S | 97%[activator] | 256%[activator]
CC1(C)O[C@@H]2[C@H](O1)[C@@H](CO)O[C@H]2n1cnc2c(=O)[nH]cnc21 | i | -7%
c1ccc2cc(-c3csnn3)ccc2c1 | nt | -8%
COc1cc(Cl)c(C)cc1NC(=O)CC1Oc2ccccc2NC1=O (stereo not drawn) | i | -21%

# Entries of single compounds, looked up by structure.
# Cc1noc(C)c1-c1ccc(C(=O)NCCN2CCOCC2)c2occc12 in the list: Vaccinia mCherry: 0%; VACV Venus inh: -9%
# CN1C(=O)SC(Nc2ccccc2C(=O)O)C1=O (stereo not drawn) in the list: Vaccinia mCherry: -15%; VACV Venus inh: -12%

# (next part)
compound | Vaccinia mCherry | VACV Venus inh
COC(=O)c1ccccc1NS(=O)(=O)c1ccc(O)c(C(=O)O)c1 | -19% | -8%
N#C/C(C(=O)N1CCOCC1)=C1/SC(Cc2ccccc2)C(=O)N1c1ccccc1 (stereo not drawn) | nt | -17%
O=C(CSc1nc(=O)n2ccccc2n1)N1CCC(Cc2ccccc2)CC1 | -9% | -18%
Cc1ccc(-c2nc(CS(=O)(=O)CC(=O)NC3CCCCCC3)c(C)o2)cc1 | i | -23%
CCOc1ccc(NC(=S)NNC(=O)c2cc(Br)ccc2Cl)cc1 | -1% | -8%
CCC(=O)Nc1c(-c2ccccc2)c(=O)c2ccccc2n1C | i | -6%
COc1ccc(C(=O)OC(C)C(=O)NC(C)CCc2ccccc2)cc1OC (stereo not drawn) | i | -10%
CCCCCCCCC[n+]1cccc2c3ccccc3ccc21 | nt | 11µM*
CC1([N+](=O)[O-])COP(=O)(NC2CCCC2)OC1 (stereo not drawn) | -9% | -4%
O=C(c1ccc2c(=O)n3c(nc2c1)CCCCC3)N1CCN(c2cccc(Cl)c2)CC1 | 4% | -12%
CSc1ccc(CN(C)C(=O)CCNS(=O)(=O)c2ccc(C)c(C)c2)cc1 | -10% | -23%
O=S1(=O)CCC(NC(=S)NC2CCS(=O)(=O)C2)C1 (stereo not drawn) | i | -8%
O=C(CCCl)Nc1nnc(SCC(=O)NC2CCCC2)s1 | ? | ?
Cc1ccc(Cn2cc(S(=O)(=O)c3ccc(Cl)cc3)c(=O)c3cc4c(cc32)OCO4)cc1 | -7% | -8%
CCN(CCC(=O)O)c1ccccc1 | i | -23%

# Random excerpt: 3 compounds from above, in no set order.
compound | Vaccinia mCherry | VACV Venus inh
CCOc1ccc(NC(=S)NNC(=O)c2cc(Br)ccc2Cl)cc1 | -1% | -8%
CCN(CCC(=O)O)c1ccccc1 | i | -23%
Cc1ccc(Cn2cc(S(=O)(=O)c3ccc(Cl)cc3)c(=O)c3cc4c(cc32)OCO4)cc1 | -7% | -8%

# The results go on.
compound | Vaccinia mCherry | VACV Venus inh
COc1ccc(C(C)(O)c2nc(-c3cncnc3)cs2)cc1 (stereo not drawn) | 24% | 8%
COc1ccc(CCNC(=O)c2noc(C)c2[N+](=O)[O-])cc1OC | i | -8%
CCC(C)N(C(=O)CSc1ccc(NC(C)=O)cc1)C1CCS(=O)(=O)C1 (stereo not drawn) | i | -11%
O=C(NCc1cccc(Cl)c1)c1ccc(-c2ccc(F)c(F)c2)c2ccoc12 | 8% | -21%
Cc1nc2c(c3c1[nH]c1ccccc13)C(=O)CC(C)(C)C2 | nt | ?
C[C@@H]1Cc2[nH][nH]c(=O)c2[C@H](C)O1 | 27% | 17%
O=C(COc1cccc(Br)c1)N/N=C1\CCSC1 | -3% | 5%
COc1ccc(C(NC(=O)C2CCN(CCOc3ccc(Cl)cc3Cl)CC2)c2cccs2)cc1 (stereo not drawn) | ? | ?
Cc1ccc(N2C(=O)CC(N3CCN(c4ccc(F)cc4)CC3)C2=O)c(C)c1 (stereo not drawn) | -10% | -1%
CCOc1ccccc1C=C1SC(=S)N(CC)C1=O | i | -5%
Cc1oc2c(c1C(=O)Nc1cccc3ccccc13)CCCC2 | -26% | -14%
O=C(CCC1CCCCC1)Nc1ccccc1C(=O)N1CCOCC1 | i | -1%
COC(=O)C1CCN(C(=O)COC(=O)CSc2ccc(C(N)=O)cc2[N+](=O)[O-])CC1 | -1% | -15%
NS(=O)(=O)c1ccc(NC(=S)N2CCC(Cc3ccccc3)CC2)cc1 | -13% | -13%
CCCn1c(SCC(=O)NC(C)C23CC4CC(CC(C4)C2)C3)n[nH]c1=O (stereo not drawn) | nt | -12%
Cc1nnc(N2C(=O)C(O)=C(C(=O)c3ccco3)C2c2ccc(C(C)C)cc2)s1 (stereo not drawn) | -15% | -1%
O=C(Nc1ccccc1C(=O)NCC1CCCO1)c1ccc(Cl)cc1 (stereo not drawn) | i | -16%

# Compound activity deposited in PubChem by National Center for Advancing Translational Sciences (NCATS).
